# Methyltransferases – Primary Screen for Target Class Profiling of Small Molecule Inhibitors of Methyltransferases. purified enzyme, MTase-Glo SAH luminescence; active compounds read low. calls only at 40 µM. 25,000 compounds, 3.9% hits. AID 1745853, 2022; active = -50% or lower on at least one of six enzymes; inconclusive = the cases between; inactive = as a rule above -30% on all six;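 further: enzymes were COMT GAMT GNMT HNMT NNMT and PNMT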
#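 Each enzyme was reacted with SAM and its substrate, with compounds tested once at 40 uM; SAH formed was read by MTase-Glo luminescence.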
# Calls only; i = inactive; ? = inconclusive; + = active, no number. On the % scale 0 is the no-effect control and ±100 the full control effect. Not all compounds are listed; the hit share may differ from the screen's.
# Start of the data: the first five compounds, ahead of the listing:
Structure | Methyltransferases
CC(C)[C@H](O)C(=O)N[C@@H](C)C(=O)N[C@@H]1C(=O)N(C)CCc2ccccc21 | ?
COc1ccc(OC)c(NC(=O)CN(C)S(=O)(=O)c2ccc3[nH]c4c(c3c2)CCCC4)c1 | i
O=C(NCc1ccccn1)c1ccc2c(=O)nc3c(-c4ccc(F)cc4)n[nH]n3c2c1 | i
COc1ccc(N2C(=O)c3cc4occc4n3CC2(C)C(=O)NC2CCCCCC2)cc1OC (stereo unspecified) | i
COc1ccc(S(=O)(=O)n2cnc3cc(C)c(C)cc32)cc1 | i

# All compounds of this part (from the top)
Structure | Methyltransferases
CC(C)[C@H](O)C(=O)N[C@@H](C)C(=O)N[C@@H]1C(=O)N(C)CCc2ccccc21 | ?
COc1ccc(OC)c(NC(=O)CN(C)S(=O)(=O)c2ccc3[nH]c4c(c3c2)CCCC4)c1 | i
O=C(NCc1ccccn1)c1ccc2c(=O)nc3c(-c4ccc(F)cc4)n[nH]n3c2c1 | i
COc1ccc(N2C(=O)c3cc4occc4n3CC2(C)C(=O)NC2CCCCCC2)cc1OC (stereo unspecified) | i
COc1ccc(S(=O)(=O)n2cnc3cc(C)c(C)cc32)cc1 | i
O=C(OC1C[C@H]2CC[C@@H](C1)[N+]21CCCC1)C(O)(c1ccccc1)c1ccccc1 (stereo partly specified) | i
CC(C)CCNC(=O)CCc1nnc2n(Cc3ccccc3)c(=O)c3ccccc3n12 | i
O=C1CCC2(CCCO2)CCN1Cc1ccc(C(F)(F)F)c(F)c1 (stereo unspecified) | i
COc1ccc(NC(=O)CSc2nnc3n(CCc4ccccc4)c(=O)c4ccccc4n23)cc1 | i
Cc1ncoc1C(=O)N1CCC(N2CCCC(C(=O)N3CCCC3)C2)CC1 (stereo unspecified) | i
CCN1CCN(C(=O)C2CCCN(Cc3ccncc3)CCC(=O)NCC2)CC1 (stereo unspecified) | i
CCOCCCN1C(=O)c2cc3occc3n2CC1(C)C(=O)NC1CCCCC1 (stereo unspecified) | i
Cc1cc(C(=O)N2CCCC(C(=O)Nc3cccc(-c4cc5ccccc5[nH]4)c3)C2)nn1C (stereo unspecified) | i
COC(=O)[C@H](NC(=O)[C@@H]1[C@@H](NC(=O)Nc2ccc(F)cc2F)CCN1C(=O)CSC)C(C)C | i
CCOc1cc(CNC(=O)c2cc3n(n2)CC(C)(C(=O)NCc2ccc(C)cc2)N(C)C3=O)ccc1OC (stereo unspecified) | i

# In the list so far, these contain four or more nitrogen atoms.
Structure | Methyltransferases
O=C(NCc1ccccn1)c1ccc2c(=O)nc3c(-c4ccc(F)cc4)n[nH]n3c2c1 | i
CC(C)CCNC(=O)CCc1nnc2n(Cc3ccccc3)c(=O)c3ccccc3n12 | i
COc1ccc(NC(=O)CSc2nnc3n(CCc4ccccc4)c(=O)c4ccccc4n23)cc1 | i
Cc1ncoc1C(=O)N1CCC(N2CCCC(C(=O)N3CCCC3)C2)CC1 (stereo unspecified) | i
CCN1CCN(C(=O)C2CCCN(Cc3ccncc3)CCC(=O)NCC2)CC1 (stereo unspecified) | i
Cc1cc(C(=O)N2CCCC(C(=O)Nc3cccc(-c4cc5ccccc5[nH]4)c3)C2)nn1C (stereo unspecified) | i
COC(=O)[C@H](NC(=O)[C@@H]1[C@@H](NC(=O)Nc2ccc(F)cc2F)CCN1C(=O)CSC)C(C)C | i
CCOc1cc(CNC(=O)c2cc3n(n2)CC(C)(C(=O)NCc2ccc(C)cc2)N(C)C3=O)ccc1OC (stereo unspecified) | i

# The list continues:
Structure | Methyltransferases
C/C=C/C=C/C=C/C(=O)O[C@@H]1C=C(CO)C(O)(C(=O)OC)[C@@]2(C)CCCC(C)(C)C12 (stereo partly specified) | i
CC1(NC(=O)C2CC2)CN(c2ccc(OC(F)(F)F)cc2)C1 | i
O=C(c1ccc(C(F)(F)F)cc1)N1CCCC2(C1)C(=NC1CCCC1)NC(=O)N2c1cccnc1 (stereo unspecified) | i
CCCCN(CC)CCCN1C(=O)c2cc3occc3n2CC1(C)C(=O)NC1CCCCCC1 (stereo unspecified) | i
Fc1ccc(-c2c3cccc(C(F)(F)F)c3nn2Cc2ccc(F)cc2Cl)cc1 | i
CCN(CC)CCCN1C(=O)c2cc3occc3n2CC1(C)C(=O)NC1CCC(C)CC1 (stereo unspecified) | i
Cc1ccc(N2CC(c3noc(-c4ccc5ccccc5n4)n3)CC2=O)cc1 (stereo unspecified) | i
O=C(c1ccco1)N1CCCCC1c1nc(C2CC2)n[nH]1 (stereo unspecified) | i
CCC(C)NC(=O)c1ccc2c(=O)n(C)c3nnc(SCc4cccc(F)c4)n3c2c1 (stereo unspecified) | i
Cc1ccc(N2C(=O)c3cc4ccccc4n3CC2(C)C(=O)NCCC(C)C)c(C)c1 (stereo unspecified) | i
Cc1nn2c(N3CCC(O)C3)cc(-c3ccccc3)nc2c1C (stereo unspecified) | i
CC[C@@H]1C[C@]1(NC(=O)[C@@H]1C[C@@H]2CN1C(=O)[C@H](C(C)(C)C)NC(=O)OCC(C)(C)CCCCc1cccc3c1CN(C3)C(=O)O2)C(=O)NS(=O)(=O)C1CC1 | i
CCCn1c(=O)c2ccc(C(=O)NC(C)CC)cc2n2c(=O)[nH]nc12 (stereo unspecified) | i
CC(C)CC(=O)Nc1ccnn1C1CCN(C(=O)c2scc3c2CCCC3)CC1 | i
Cc1ccc(CNC(=O)CSc2nnc3n(CC(C)C)c(=O)c4ccccc4n23)cc1 | i
CC(C)OCCCNC(=O)CCc1nnc2ccc(NCc3ccccc3Cl)nn12 | i
CCC(C)NC(=O)Cn1nc2n(CC(C)C)c(=O)c3ccc(C(=O)NC4CCCCC4)cc3n2c1=O (stereo unspecified) | i
COc1ccc(CCC(=O)N2CCC(Cc3nc(-c4ccc(OC)cc4)no3)CC2)cc1 | i
COc1ccccc1C(CC(=O)NCC(C)C)c1cn(C)c2ccccc12 (stereo unspecified) | i
COc1cccc(CNC(=O)Cn2ccc3cc(S(=O)(=O)N4CCC(C)CC4)ccc32)c1 | i
CC1CCCCN1CCNC(=O)CCCc1nnc2n3nc(-c4ccccc4)nc3c3ccccc3n12 (stereo unspecified) | i
COc1cc(C)c(C(=O)Oc2cc(C)c(C(=O)Oc3cc(C)c(C(=O)NC(C)C(=O)O)c(O)c3)c(O[C@@H]3O[C@H](CO)[C@@H](O)[C@H](O)[C@H]3OC(C)=O)c2)c(OC)c1 (stereo partly specified) | i
C[C@@H]1O[C@@H](O[C@H]2[C@H](OC(=O)[C@]34CCC(C)(C)C[C@H]3C3=CCC5[C@@]6(C)C[C@H](O)[C@H](O[C@@H]7O[C@H](C(=O)O)[C@@H](O)[C@H](O)[C@H]7O)[C@@](C)(CO)C6[C@H](O)C[C@@]5(C)[C@]3(C)C[C@H]4O)O[C@@H](CO)[C@@H]2O)[C@H](O)[C@H](O)[C@H]1O[C@@H]1OC[C@@H](O)[C@H](O[C@H]2OC[C@](O)(CO)[C@H]2O)[C@H]1O (stereo partly specified) | i
O=C(CCc1ccsc1)N1CCC2(CCCN(Cc3cccnc3)C2=O)C1 (stereo unspecified) | i
CCCN1C(=O)c2c(C(=O)NCc3ccc(SC)cc3)ncn2CC1(C)C(=O)NCCC(C)C (stereo unspecified) | i
COCc1nc(C2CC(N)C2)cc(N2CCC(Cn3cccn3)CC2)n1 (stereo unspecified) | i
O=S(=O)(O)c1ccc(Nc2ncnc3c2ncn3[C@@H]2O[C@H](CO)[C@@H](O)[C@H]2O)cc1 | i
Cc1ccc(C)c(Cn2nc3n(CC(C)C)c(=O)c4ccc(C(=O)NC(C)C)cc4n3c2=O)c1 | i
CCOC(=O)c1cc2n(n1)CC(C)(C(=O)NC1CCCCC1)N(c1ccc(C)cc1Cl)C2=O (stereo unspecified) | i
Nc1nccc(N2CCC3(CCC(=O)N(CC4CCCO4)C3)CC2)n1 (stereo unspecified) | ?
CN1C(=O)c2cc(C(=O)NCc3ccccc3Cl)nn2CC1(C)C(=O)NC1CCCC1 (stereo unspecified) | i
Cc1ccc(Cl)cc1NC(=O)Cn1nc2n(CCC(C)C)c(=O)c3ccccc3n2c1=O | i
CC(C)=CCC/C(C)=C/CO[C@@H]1O[C@H](CO)[C@@H](O)[C@H](O)[C@H]1O | i
C=CCn1c(=O)c2ccc(C(=O)NC(C)CC)cc2n2c(=O)n(CC(=O)NCc3ccccc3)nc12 (stereo unspecified) | i
COc1ccc(CCNS(=O)(=O)c2ccc3oc(=O)c4ncn(C)c4c3c2)cc1OC | i
Cc1cccc(C(=O)N2CCC(c3noc(CO)n3)C2)c1 (stereo unspecified) | i
CC1CCCN(S(=O)(=O)c2ccc3[nH]c4c(c3c2)CCCC4)C1 (stereo unspecified) | i
COc1cccc(C(=O)N2CC3(Cc4ccccc4N(C(C)=O)C3)C2)c1 | i
CCc1cc2c(cc3n2CC(C)(C(=O)NC2CCC(C)CC2)N(CCN2CCOCC2)C3=O)s1 (stereo unspecified) | i
COc1ccc(OC2CCN(C(C)=O)CC2)c(C(=O)NCCc2ccccc2OC)c1 | i
CC1CCCC(NC(=O)C2(C)Cn3c(cc4sccc43)C(=O)N2C2CCCCCC2)C1C (stereo unspecified) | i
CCCCCOc1ccc(C2SC(=O)NC2=O)cc1OCC (stereo unspecified) | i
Cc1cc(-c2nc(C(=O)Nc3cn(C4CCOCC4)nc3C(N)=O)co2)ccn1 | ?
O=C(c1ccccc1C(F)(F)F)N1CCc2nc3cc[nH]n3c(=O)c2C1 | i
CCCN1C(=O)c2c(C(=O)NCCCN3CCOCC3)ncn2CC1(C)C(=O)NCc1ccc(C)cc1 (stereo unspecified) | i
Cc1ccc(Cn2c(=O)c3ccccc3n3c(-c4cccc(O)c4)nnc23)cc1 | i
COc1cc(/C=N\NC(=O)c2ccc3c(c2)OCO3)ccc1OCc1ccccc1 | +
CCN(CCN(C)C)C(=O)CNCc1cc(C(=O)O)ccn1 | ?
O=C(NCc1ccco1)NC1CCc2nnc(C3CC3)n2CC1 (stereo unspecified) | i
CCCn1c(=O)c2ccc(C(=O)NC(C)C)cc2n2c(SCC(=O)Nc3ccc(C)cc3)nnc12 | i
Cc1cccc2[nH]c(CN(C)C(=O)c3ccc(CCC(C)(C)O)cc3)nc12 | i
Cc1cccc(Cn2nc3n(CCC(C)C)c(=O)c4ccccc4n3c2=O)c1 | i
CN(C(=O)Cc1ccsc1)C1CCc2nn(C)c(=O)n2CC1 (stereo unspecified) | i
COc1ccc(Cl)cc1N1C(=O)c2cc3ccccc3n2CC1(C)C(=O)NC1CCCC1 (stereo unspecified) | i
CCOC(=O)c1cc2n(n1)CC(C)(C(=O)NC1CCCCC1)N(c1ccc(C)cc1)C2=O (stereo unspecified) | i
CCOC(=O)C1CCCN(c2nc3c(-c4cccc(F)c4)nnn3c3ccc(Cl)cc23)C1 (stereo unspecified) | i
O=C(Nc1cccc(Cl)c1)N1CC(n2cc(COc3ccccc3)nn2)C1 | i
Cc1occc1C(=O)N1CCC2(CCCN(CC3CCCCC3)C2=O)C1 (stereo unspecified) | i
Cc1c(Cl)cccc1N1C(=O)c2cc3occc3n2CC1(C)C(=O)NC1CCCCCC1 (stereo unspecified) | i
CCc1ccc(CNC(=O)Cn2ccc3cc(S(=O)(=O)N4CCCC4)ccc32)cc1 | i

# Carrying on:
Structure | Methyltransferases
O=C(NCCCN1CCc2ccccc2C1)C1CCCCC(=O)N1Cc1ccccc1 (stereo unspecified) | i
Cc1cc(C)cc(NC(=O)Cn2nc3n(CCc4ccccc4)c(=O)c4ccccc4n3c2=O)c1 | i
CC(C)NC(=O)N1CC[C@H](N=C2Nc3cc(F)ccc3N(CC(F)F)c3ccc(Cl)cc32)C1 | i
CSCC[C@H](NC(=O)[C@H](CCSC)NC(=O)CNC(=O)[C@H](Cc1ccc(O)cc1)NC(=O)[C@H](Cc1ccccc1)NC(=O)[C@H](CCCN=C(N)N)NC(=O)[C@H](CC(=O)O)NC(=O)[C@@H]1CCCN1C(=O)[C@H](CC(=O)O)NC(=O)[C@@H]1CCCN1C(=O)[C@@H]1CCCN1C(=O)[C@@H](N)CC(=O)O)C(N)=O | i
CCCN1C(=O)c2cc(C(=O)NCc3ccc(OC)c(OC)c3)nn2CC1(C)C(=O)NC1CCCC1 (stereo unspecified) | i
CCN1c2cc(C(=O)NCCc3ccccc3)ccc2C(=O)N2CCCCCC21 (stereo unspecified) | i
COc1ccc(NC(=O)Cn2c(-c3ccc(Cl)cc3)nc(C)cc2=O)cc1OC | i
CC1(C(=O)NC2CCCCCCC2)Cn2c(cc3occc32)C(=O)N1Cc1ccc(F)cc1 (stereo unspecified) | i
COc1ccc(N(C)c2nc(C)nc3ccccc23)cc1 | i
CCCN1CCN(CCCN2C(=O)c3cc4occc4n3CC2(C)C(=O)NC2CCCCCC2)CC1 (stereo unspecified) | i
Cc1ccc(CN2C[C@]34C=C[C@H](O3)C(C(=O)N(C)Cc3ccsc3)C4C2=O)cc1C (stereo partly specified) | i
CCN1C(=O)c2c(C(=O)NCc3cccc(F)c3)ncn2CC1(C)C(=O)NC1CCCC1 (stereo unspecified) | i
CNC(=O)c1cc(C2CC2)nc2c1c(C1CCN([S+](=O)([O-])c3c(C)noc3C)CC1)nn2C | i
COc1ccc(-c2nnc3n(Cc4ccccc4)c(=O)c4ccccc4n23)c(OC)c1 | i
CCc1cc2c(cc3n2CC(C)(C(=O)NC2CCCCCC2)N(CCCOC)C3=O)s1 (stereo unspecified) | i
CCOc1ccc(C2c3cccn3-c3sc4c(c3CN2C(=O)Nc2ccccc2F)CCCC4)cc1 (stereo unspecified) | i
COC(=O)CNC(=O)N1CCCCCCNC(=O)[C@@H]2C[C@@H](c3nc(-c4cccnc4)no3)C[C@@H]21 | i
CC(C)CCn1c(=O)c2ccc(C(=O)NC(C)C)cc2n2c(=O)n(Cc3ccc(F)cc3Cl)nc12 | i

# Screening data (PubChem)
